Screening data: PubChem BioAssay, several laboratories
Calb FLC: affects C. albicans growth with fluconazole; growth inhibition, % (concentration not given with the values); C. albicans CaCi-2 (fluconazole-resistant clinical isolate) + fluconazole, Alamar Blue growth, 48 h; hit rate 0.57% among 300,000;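 active = most replicates above 75%; inconclusive = exactly half above 75%; inactive = most below 75%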;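 also: all wells also contain fluconazole at 8 µg/ml as a sub-toxic cotreatment; 0% = median of DMSO wells and 100% = median of geldanamycin control wells; wells of about 8 µL received 7.5 nL stock; the first replicate is given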
Beta apoptosis: beta cell apoptosis inhibition; hit rate 0.8% among 300,000; INS-1E cytokine-induced death, ATP luminescence, 48 h; percent of positive-control rescue, neutral wells zero; AID 435005; protection from apoptosis, % (no concentration beside the values);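 active = all replicates at 75% or more, or half of them and the mean; inconclusive = half reach 75% but not the mean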;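 also: 0% = cytokine-treated negative control wells and 100% = positive control rescue; higher means more ATP so stronger rescue from cytokine killing; wells of about 40 µL received 100 nL stock; the first replicate is given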
T cruzi inh: T. cruzi replication inhibition. hit rate 1.4% among 300,000. inhibition, % (concentration not given with the values). T. cruzi beta-gal in NIH3T3, luminescence, 90 h;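 active = mean inhibition across valid replicates above about 55%, limit read from the data; inconclusive = mean below that limit but half or more replicates reach it; inactive = mean below it, under half of replicates reach it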;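 also: signal also drops with host cell toxicity which is not excluded here; 0% = plate median of DMSO wells and 100% = zero luminescence signal; higher percent means less beta-gal luminescence so fewer parasites; stock transfer was 50 nL into about 50 µL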
Vif TR-FRET: HIV-1 Vif–A3G interaction blockers – biochemical, TR-FRET, GST-Vif 1-94, biotin-A3G peptide, dose response retest, primary screen (AID 1117319); inhibition, %; hits with a dose series show IC50 in µM; hit rate 0.57% among 260,000; TR-FRET GST-Vif / biotin-A3G peptide binding; higher % means a stronger effect; test concentration not given here; strong numbers were not always called active;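 active = above the screen mean plus three standard deviations and confirmed in dose response; inconclusive = results disagree or hit not tested in dose response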;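 also: Vif residues 1-94 fused to GST binding biotinylated APOBEC3G peptide 110-148; 0% = full assay without inhibitor and 100% = GST in place of GST-Vif; retest series ran down from 100 µM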
LANA-H2B inh: blocks KSHV LANA binding to histone H2A/H2B. Q9QR71. cell-free LANA-H2A/H2B peptide, fluorescence polarization. inhibition, % (no concentration beside the values). hit rate 0.6% among 320,000; in the data active = inhibition mostly above about 10%, no sharp cut-off; inactive = mostly below about 6.7%;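 also: stock transfer was 7.5 nL into about 10 µL; 0% = median of vehicle wells and 100% = median of positive control wells; one replicate is shown; the record names a cut of 25% in any replicate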
Target sequence (Q9QR71 whole entry, looked up): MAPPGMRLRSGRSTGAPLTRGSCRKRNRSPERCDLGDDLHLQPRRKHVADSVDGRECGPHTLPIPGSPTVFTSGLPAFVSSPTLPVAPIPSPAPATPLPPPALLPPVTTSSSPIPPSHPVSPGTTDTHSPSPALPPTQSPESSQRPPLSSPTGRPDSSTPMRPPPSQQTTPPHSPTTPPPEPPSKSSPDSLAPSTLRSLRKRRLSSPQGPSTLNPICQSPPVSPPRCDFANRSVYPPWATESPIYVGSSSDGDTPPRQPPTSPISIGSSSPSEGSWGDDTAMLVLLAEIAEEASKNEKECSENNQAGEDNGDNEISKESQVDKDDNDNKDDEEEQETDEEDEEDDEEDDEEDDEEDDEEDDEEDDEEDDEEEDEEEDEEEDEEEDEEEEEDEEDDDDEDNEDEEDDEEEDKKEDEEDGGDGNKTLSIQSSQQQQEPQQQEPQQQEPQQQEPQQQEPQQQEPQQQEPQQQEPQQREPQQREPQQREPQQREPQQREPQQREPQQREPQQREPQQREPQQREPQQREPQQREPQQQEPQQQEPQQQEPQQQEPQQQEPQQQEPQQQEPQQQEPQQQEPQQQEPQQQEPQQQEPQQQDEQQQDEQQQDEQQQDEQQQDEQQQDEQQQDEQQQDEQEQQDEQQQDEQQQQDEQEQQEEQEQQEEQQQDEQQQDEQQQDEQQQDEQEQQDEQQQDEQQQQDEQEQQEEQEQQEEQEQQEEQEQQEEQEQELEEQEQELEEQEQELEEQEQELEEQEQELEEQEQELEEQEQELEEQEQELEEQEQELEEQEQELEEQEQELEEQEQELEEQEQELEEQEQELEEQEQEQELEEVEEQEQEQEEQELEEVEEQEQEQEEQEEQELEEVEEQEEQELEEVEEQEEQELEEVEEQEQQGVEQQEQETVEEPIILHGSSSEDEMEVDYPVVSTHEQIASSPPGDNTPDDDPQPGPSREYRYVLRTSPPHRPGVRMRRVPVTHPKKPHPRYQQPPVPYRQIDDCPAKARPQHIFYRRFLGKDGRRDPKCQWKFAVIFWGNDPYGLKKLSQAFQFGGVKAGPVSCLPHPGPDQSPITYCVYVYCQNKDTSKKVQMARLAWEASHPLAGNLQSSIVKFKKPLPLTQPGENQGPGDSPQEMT
MLL AF4-AF9 inh: MLL-AF4/AF9 protein interaction inhibition | P42568 | AlphaScreen, biotin-AF4 peptide binding to FLAG-AF9 | inhibition, % at 10 µM | hit rate 0.47% among 350,000 | AID 651704;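 active = every replicate reaching a set inhibition limit, whatever the replicate mean, cut at about 25% in these data; inconclusive = mean inhibition reaches that limit but some replicates miss it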;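 also: 0% = plate neutral control median and 100% = total signal loss; the record names both 10 and 1 µM as test concentration; the first replicate is given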
A1 inh: inhibitors of the anti-apoptotic protein A1, read as caspase activation. caspase activation, % (concentration not given with the values). AID 2462. MEF A1-2A-BIM cells, Caspase-Glo 3/7 luminescence, 3 h; percent of clofoctol response, vehicle zero. hit rate 0.066% among 330,000;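 active = over half of replicate activation scores above 10%, or exactly half above 10 with the replicate mean above 10; inconclusive = replicate mean below 10 yet half the replicates above 10; inactive = over half of replicates below 10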;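 also: wells of about 30 µL received 50 nL stock; many hits fall short of the cut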
RanGTP-Imp inh: inhibitors of RanGTP-importin-beta interaction, primary screen, biochemical, FRET, CFP-Ran, YFP-importin-beta, homogeneous. cell-free CFP-Ran/YFP-importin-beta FRET ratio. inhibition, % (no concentration beside the values). hit rate 1.1% among 300,000. AID 2216;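 active = most replicates above 15%; inconclusive = exactly half above 15%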;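 also: 0% = DMSO wells and 100% = Ran loaded with GDP instead of GTP; wells of about 40 µL received 100 nL stock; the first replicate is given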
* marks the source's active call; other numbers are inactive results; ? = inconclusive; / = not tested or not shown; & = joins results of further samples. An unsorted share of the library. About 4.3% of those tested had a hit in this group.

SMILES	Calb FLC	Beta apoptosis	T cruzi inh	Vif TR-FRET	LANA-H2B inh	MLL AF4-AF9 inh	A1 inh	RanGTP-Imp inh
CN1CCN(CC(O)COC(c2ccc(Cl)cc2)c2ccc(Cl)cc2)CC1 (stereo not given)	2	7	33	-13%	-2.2	9.6	-2.1	5.6
CCS(=O)(=O)n1nc(-c2ccccc2)nc1SC	2	6	-4	19%	0.4	-41	-1.1	0.9
C=C(C)CNC(=S)N/N=C(\C)c1ccc(-n2ccnc2)cc1	7	2	-36	0%	6.0	/	0.2	9.2
CCOC(=O)c1cn(C2CC2)c2c(F)c(NCCCN(C)C)c(F)cc2c1=O	0	/	27	/	3.8	4.9	1.1	2.7
O=C(c1ccc(Cn2cnnn2)cc1)N1CCCC(Nc2ccc(F)cc2)C1 (stereo not given)	19	-9	-8	/	-4.3	-0.3	-0.5	3.8
Cc1ccc2cc(/C=N/Nc3ccc(C(=O)O)cc3)c(Cl)nc2c1	-1	-8	-23	/	-3.0	/	-2.9	2.4
C[C@H](CO)N1C[C@H](C)[C@@H](CN(C)Cc2ccncc2)Oc2c(NC(=O)c3ccncc3)cccc2C1=O	/	0	/	/	0.8	-0.2&5.3	-0.7	/
Cc1ccc(S(=O)(=O)N(CC(=O)NCCSC2CCCCC2)c2ccccc2F)cc1	18	5	-1	2%	-2.5	/	-0.2	1.3
Cc1ccc(S(=O)(=O)N2CCN(CC(=O)Nc3ccc([N+](=O)[O-])cc3)CC2)cc1C	-4	2	6	23%	-5.0	/	0.3	?
O=C(CSc1n[nH]c(=O)[nH]c1=O)c1cccc([N+](=O)[O-])c1	1	2	-8	9%	1.7	0.3	1.6	-0.4
C=CCN(CC=C)C(=O)c1ccc2nc(Cc3ccc(OC)c(OC)c3)oc2c1	7	/	5	/	3.9	6.6	-0.1	?
Cn1c(C2CC(=O)N(Cc3ccccc3)C2)nc2ccccc21 (stereo not given)	-14	-3	1	?	1.2	-0.4	-0.5	-2.8
CC(=O)c1cn(CC(=O)Nc2c(C)cccc2C)c2ccccc12	0	6	-8	18%	-9.3	/	?	-0.1
CCCCCSc1nc(N2CCOCC2)c2c(c1C#N)CC(C)(C)OC2	-4	-4	48	-1%	-0.2	/	-0.5	0.5
CC(C)(C)NC(=O)COc1ccccc1C#N	1	-4	-10	/	3.2	-1.1	-1.6	2.3
COc1cc(OC)cc(C(=O)N2CCN(Cc3ccccc3C(F)(F)F)CC2)c1	3	-8	12	28%	-2.0	/	-1.8	-2.5
CN(C)/C=N/c1cc(=O)[nH]c(=O)n1CC1CC1	-8	5	-23	-5%	2.3	5.8	0.2	6.2
Cc1cc(C)cc(OCC(=O)N2CCc3ccccc3C2)c1	-2	-5	5	-13%	-6.9	-3.0	0.3	-1.4
CCOc1ccc(C2/C(=C(/O)c3ccc4c(c3)CC(C)O4)C(=O)C(=O)N2CCCn2ccnc2)cc1 (stereo not given)	-8	-2	-8	-3%	-3.3	-3.6	-0.5	8.1
CCCC(C)c1nnc(NC(=O)C(=O)OCC)s1 (stereo not given)	-18	-3	-9	-9%	-0.3	-0.8	0.0	0.3
Cc1ccc(-n2nnc3c(=O)n(CC(=O)N4CCC(C)CC4)cnc32)cc1	3	-8	-11	?	-3.1	-62	-0.7	0.1
COc1ccc(CCN(C(=O)c2cccc(F)c2)C2CC(=O)N(c3ccc(OC)cc3)C2=O)cc1 (stereo not given)	2	-4	2	2%	-1.0	/	-0.5	3.1
COCCCN1C(=O)c2ccc(C(=O)OCC(=O)NCCc3ccccc3)cc2C1=O	-9	-14	-6	?	2.5	-2.9	-2.8	-1.2
Cc1cccc(NC(=O)c2ccc([N+](=O)[O-])cc2Cl)n1	0	0	8	-1%	2.7	/	0.5	0.9
C/C(N)=C(/C#N)C(=O)CSc1nnc(SCc2ccc(Cl)cc2)s1	1	16	8	11%&29%	-2.3	-1.9	0.3	-0.7
Cc1cccc([N+](=O)[O-])c1NC(=O)CSc1nnc2ccccn12	/	-2	/	-3%	2.0	-2.3	0.2	/
COC(=O)C(CCSC)NC(=O)CNC(=O)C1CCCCC1 (stereo not given)	4	/	-13	3%	-1.2	/	-0.9	0.8
CN(C)S(=O)(=O)c1cccc(NC(=S)NCc2ccc3c(c2)OCO3)c1	-9	-2	-2	?	6.9	2.9	0.5	-0.5
CC1=NN(C)C(=O)C1Cc1c(F)cccc1Cl (stereo not given)	-14	-5	23	/	-2.8	/	0.9	5.0
CC(=O)Oc1ccc2occ(-c3ccccc3)c2c1	-8	/	-4	/	3.3	-3.5	-0.5	-2.9
COc1ccc(NS(=O)(=O)c2ccc(Oc3cccc(C(=O)O)c3)cc2)cc1	14	-5	-28	-3%	-1.7	-1.5	-1.4	2.3
COc1ccccc1N1CCN(S(=O)(=O)CCNC(=O)c2ccc(OC(C)C)cc2)CC1	3	5	-10	/	2.1	0.3	0.1	-2.1
CCCn1c(=O)c(C(=O)NNC(=O)Cc2ccccc2)c(O)c2ccccc21	-1	11	1	/	0.3	-1.5	0.3	0.0
CCn1nc(C)c(/C=N/NC(=O)Cn2nc(C)cc2C)c1C	-5	4	-3	/	-1.5	/	-0.1	?
C/C(CC(=O)Nc1cc(Cl)ccc1Cl)=N\NC(=O)c1ccco1	-1	-1	8	14%	-3.8	/	-0.3	4.3
CCN(CC)S(=O)(=O)c1ccc(N2CCOCC2)c(NC(=O)C2CCCO2)c1 (stereo not given)	3	1	22	2%	-6.5	-14	0.2	4.2
COC(=O)c1ccccc1NC(=S)N(C)C	9	-6	/	-3%	-1.1	0.1	0.4	-2.8
Cc1[nH]nc2c1C1(C(=O)N(Cc3ccc(Cl)cc3)c3ccccc31)C(C#N)=C(N)O2 (stereo not given)	-12	-7	13	3%	-0.4	/	-0.5	-1.5
O=C(NC1CCCCC1)N1CCCC(c2nc(-c3cccs3)no2)C1 (stereo not given)	2	-1	3	1%	7.2	/	0.1	-0.5
c1ccc(-c2nc(NC3CCCC3)c3ccccc3n2)cc1	15	9	39	/	-3.6	-4.9	-0.7	1.0
COc1cc(/C=C/C(=O)N2C(=O)c3cccc(N)c3C2=O)cc(OC)c1OC	-16	-17	-6	?	2.9	1.6	2.2	?
COCCNCCOCCOc1ccc(Cl)c(C)c1	-24	-10	37	5%	1.6	/	0.2	-0.9
O=C(NCc1ccccn1)[C@H]1C[C@@H]1[C@H](NP(=O)(c1ccccc1)c1ccccc1)c1ccccc1	-6	-1	2	11%	-3.1	3.0	-1.1	-6.6
COc1ccc(-c2csc(Nc3ccc(C)cn3)n2)cc1OC	13	3	4	-6%	0.4	-0.1	-0.5	2.5
CCOc1ccc2oc(C(=O)O)c(C)c2c1	-5	-1	0	/	-1.0	-2.1	-0.8	0.7
COc1ccc(C(=O)NC(CCSC)C(=O)N2CCCCCC2)cc1 (stereo not given)	-2	-3	2	/	31*	0.2	-0.4	0.8
Cc1c(Cl)cnc(NC(=O)COC(=O)c2ccc3c(c2)OCO3)c1Cl	32	-8	-6	/	9.0	-1.7	-0.3	-4.8
C#CCOC(=O)C(NC(=O)c1ccccc1)=C(C)C	-17	-6	-1	24%	-0.7	/	1.2	3.1
COc1ccc(-n2sc3c(c2=S)-c2cc(OC)ccc2NC3(C)C)cc1	6	6	32	5%	-3.5	/	-0.9	?
COCC(=O)N/N=C/c1c(C)[nH]n(-c2ccccc2)c1=O	-4	/	-16	-7%	1.2	2.4	1.1	-2.7
S=c1[nH]ccn1-c1c(Cl)cccc1Cl	18	-7	-5	-8%	2.5	-0.4	1.2	-4.1
Cc1c(C(=O)N2CCN(c3cccc(Cl)c3)CC2)cccc1[N+](=O)[O-]	13	0	8	2%	6.2	9.8	0.2	-1.9
COc1ccc2cc(C(=O)N3CCCCCC3)sc(=O)c2c1OC	4	-2	-8	0%	-0.6	/	0.2	2.7
Cc1ccc(S(=O)(=O)CCC(=O)Nc2ccccc2Br)cc1	-7	0	4	2%	4.5	-7.5	-0.8	-1.8
Fc1cccc(/C=N/Nc2ncnc3nc[nH]c23)c1	8	/	-5	/	-5.0	-10	-8.5	1.7
Cc1cc(C)n(-c2nc3ccccc3nc2N2CCN(C(=O)c3ccc(Cl)cc3)CC2)n1	6	2	10	-4%	-3.8	-11	-0.4	-1.4
Cc1cc(Cl)ccc1NC(=O)CCC(=O)N/N=C/c1cccnc1	?	-4	-10	/	-4.9	2.5	1.4	-3.3
Cc1ccc(S(=O)(=O)Nc2ccc3c(c2)CCC3)cc1	4	3	-23	/	/	/	0.6	?
Cc1cccc(C)c1NC(=O)COC(=O)CCc1ccc(S(=O)(=O)N2CCCCC2)cc1	0	-2	-8	/	-13	-11	0.3	5.4
COc1cccc(-n2nc3c(-n4ncc(C#N)c4N)nnc(C)c3c2C)c1	0	-2	-1	?	-1.1	/	0.3	-6.6

Remaining list, next part
SMILES	Calb FLC	Beta apoptosis	T cruzi inh	Vif TR-FRET	LANA-H2B inh	MLL AF4-AF9 inh	A1 inh	RanGTP-Imp inh
COC(=O)COc1ccc(S(=O)(=O)NCc2cccnc2)cc1C	3	-2	-8	?	2.9	-2.9	-0.4	-1.1
S=c1[nH]ncn1NCc1ccc(Cl)cc1Cl	12	-16	-33	0%	1.1	3.6	1.1	3.7
COC(=O)c1cc([N+](=O)[O-])c(-n2cncn2)c([N+](=O)[O-])c1	3	/	-13	/	/	-2.0	/	?
O=C(Nc1ccc(Br)cn1)c1ccc([N+](=O)[O-])cc1Cl	-1	3	52	-10%	-0.9	7.5	-0.9	?
O=C(CNc1cccc2ccccc12)N/N=C/C=C/c1ccco1	20	-6	20	-7%	1.4	7.3	-0.7	4.6
CCNS(=O)(=O)c1ccc(CCC(=O)N2CCN(c3ccccc3F)CC2)cc1	-9	2	10	/	2.2	-13	-0.5	1.3
O=C(NC1(C(F)(F)F)C(=O)Nc2c1c(=O)[nH]c(=O)n2Cc1ccco1)C1CC1 (stereo not given)	11	3	-10	17%	12	/	0.8	-2.3
COc1ccc(C2C(C(=O)N3CCOCC3)c3ccccc3C(=O)N2c2ccc(OC)cc2)cc1 (stereo not given)	-6	-2	1	1%	-1.3	/	0.6	-0.7
Cc1ccc(NC(=O)NNC(=O)c2ccc3c(c2)NC(=O)C(C)(C)O3)cc1	-5	8	-4	-2%	-6.1	-2.1	-0.4	-3.1
Cc1csc(CNC(=O)C2CCC(=O)N(CCc3cccc(F)c3)C2)n1 (stereo not given)	5	0	-4	/	-3.9	-0.8	-0.8	1.2
CC1Cc2cc(S(=O)(=O)NCCC(=O)N(C)Cc3ccccc3)ccc2N1C(=O)C1CC1 (stereo not given)	-3	0	0	/	-0.4	0.0	2.2	0.2
COC(=O)/C(=N\OCc1ccc(C#N)cc1)c1c(C)nn(C)c1C	4	-3	-8	/	3.2	-7.0	0.6	4.3
C[C@@H]1CN(S(=O)(=O)c2ccc3c(c2)OCCO3)CCN1S(=O)(=O)c1c(F)cccc1F	/	-3	/	/	-3.1	3.2	1.3	/
